Screening data as filed in PubChem.
H5N1 antiviral – MDCK cell protection from H5N1 avian flu; cytopathic effect, luminescence, 72 h; hits give high values; no value below 0 was filed and about half of the inactive calls have no number; reference of the scale not given here; inhibition, % at 50 µM; hit rate 0.07% among 96,000; AID 740; in the data active = inhibition above about 25%
Numbers without * were called inactive; i = inactive. Some of the compounds tested; rates above refer to the full screens.

SMILES	H5N1 antiviral
Cc1nc(Oc2ccc(Cl)cc2)c2oc3ccccc3c2n1	0.3
CC1(C)Cc2nc3sc4c(N(CCO)CCO)ncnc4c3cc2CO1	i
O=C(Nc1ccc(S(=O)(=O)NCc2ccccc2)cc1)Nc1ccc2c(c1)OCO2	i
FC(F)(F)c1nnc2ccc(N3CCN(c4ccccc4)CC3)nn12	i
COCCNC(=O)CSc1nc2ccc(N3CCOCC3)cc2c(=O)n1Cc1ccc(OC)cc1	1.9
O=C(CN1C(=O)CCC1=O)Nc1nc(-c2ccccn2)cs1	2.6
CC(=O)Nc1ccc(C(=O)CSc2nnc3scc(-c4ccccc4)n23)cc1	i
Cc1ccc2nc(N3CCN(C)CC3)c(C#N)cc2c1	0.6
O=C(C/C(=N/O)c1ccccc1O)C(F)F	i
CC1CCCCC1NC(=O)C1CCN(S(=O)(=O)c2ccc3c(c2)CCC(=O)N3)CC1 (configuration not stated)	1.1
COCC(=O)N(C)c1nnc(-c2cnc(C)cn2)s1	0.7
COc1cc(Br)cc(CN2CCN(C=O)CC2)c1O	i

By substructure, the entries above with an aryl thioether with sulfur outside any ring.
SMILES	H5N1 antiviral
COCCNC(=O)CSc1nc2ccc(N3CCOCC3)cc2c(=O)n1Cc1ccc(OC)cc1	1.9
CC(=O)Nc1ccc(C(=O)CSc2nnc3scc(-c4ccccc4)n23)cc1	i

Next section.
SMILES	H5N1 antiviral
O=C(NCN1CCCCC1)c1cnccn1	i
CC(C)CC(NC(=O)C(Cc1ccc(OCc2ccccc2)cc1)NC(=O)OC(C)(C)C)C(N)=O (configuration not stated)	i
CCOC(=O)C(C(=O)Nc1cccc(C)n1)C1CCCCC1 (configuration not stated)	i
Cc1c(F)cccc1NS(=O)(=O)c1ccccc1C#N	i
CN(C)c1ccc(/C=N/NC(=O)c2ccc(Cl)cc2)cc1	0.8
COc1ccc(C2CC(C(F)(F)F)n3nc(C(N)=O)c(Cl)c3N2)cc1OC (configuration not stated)	0.3
C[N+]1=C2CCCCCN2C(O)(c2ccccc2)C1 (configuration not stated)	0.6
CCOC(=O)CN(Cc1ccc(OC)c(OC)c1)S(=O)(=O)c1ccc(OC)cc1	0.6
COc1ccc(N2C3=[N+](CC2(C)O)c2ccccc2CC3)cc1 (configuration not stated)	0.7
CC1(C)CC(=O)C=C(Nc2ccccn2)C1	0.5
Cc1ccc(Cn2nnc3c(=O)n(CC(=O)c4ccccc4)cnc32)cc1	1.2
COC(=O)C(Cc1ccc(OC(=O)c2ccccc2C)cc1)N1Cc2ccccc2C1=O (configuration not stated)	0.1
CN(C)c1ccc(CNc2ncc(Br)cc2Br)cc1	i
O=C(CCC1CCCC1)N1CCN(C(=O)COc2ccccc2)CC1	0.2
CC1(C)Cc2ccccc2-c2nnc(SCC(=O)Nc3nc4ccccc4s3)n21	0.5
COc1ccc(CCNC(=O)CSc2nnc(-c3ccc(F)cc3)o2)cc1OC	0.2
COC(=O)CSc1nc(N)c(C#N)c(C(C)C)c1C#N	i
COc1ccc(C)cc1S(=O)(=O)N1c2ccccc2CC1C (configuration not stated)	i
NC(=O)SCC(=O)Nc1ccc(Cl)cc1	i
Oc1cc(Cc2ccccc2)cnc1CN1CCCCC1	0.2
COc1cccc(CN(C)C(=O)c2ccc(S(=O)(=O)N3CCCC3)cc2)c1OC	1.0
c1ccc(-c2ncnc3nc4n(c23)CCC4)cc1	i
Cc1ccc(NC(=O)c2c(C(F)(F)F)nn(C)c2SCc2cccc(C(F)(F)F)c2)cc1C	5.3
CN(C)S(=O)(=O)c1cccc(C(=O)OCC(=O)Nc2sccc2C(N)=O)c1	3.8
COC(=O)c1ccc2ccn(CC(=O)NC3CCCCC3)c2c1	0.5
CCC(=O)N1CCCc2cc(S(=O)(=O)N3CCN(C4CCCCC4)CC3)ccc21	0.7
Cc1cccc(NC(=O)N2CCC(NC(=O)c3ccccc3C)CC2)c1	0.1
COc1ccc(Cl)cc1C(=O)OCC(=O)NC(=O)c1cccn1C	i
O=C(Nc1cccc(F)c1)N(Cc1ccc(Cl)cc1)CC(O)C(F)(F)F (configuration not stated)	0.8
Cc1cc(=S)[nH]c2ccccc12	1.8
O=C(O)c1cc2c(s1)-c1ccccc1OC2	0.2
O=C(Nc1ccc(Cl)c(Cl)c1)N1CC=C(c2ccccc2)CC1	1.2
COc1ccc(NC(=O)c2c(OC)cccc2OC)c(OC)c1	i
CCc1nc(SCc2cccnc2)c(C#N)cc1C	0.9
CCN(CC)c1ccc2cc(C(=O)Nc3ccccn3)c(=O)oc2c1	i
CCOc1[nH]n(-c2ccc(Cl)cc2)c(=O)c1C=Nc1ccc(C)cc1	i
COc1ccc(C(=O)Nc2cccc(/C(C)=N/NC(=O)c3ccc([N+](=O)[O-])c(C)c3)c2)cc1OC	i
CCCn1nnc(NC(=O)c2cccc(OCC(C)C)c2)n1	i
O=C(COn1nnc2ccc(Cl)cc21)NC12CC3CC(CC(C3)C1)C2	2.1
CCOC(=O)CSc1nnnn1-c1cc(OC)ccc1OC	0.1
CCn1c2ccccc2c2cc(NC(=O)CSc3nnc(-c4cccc(F)c4)o3)ccc21	0.1
CCOC(=O)N1CCN(C(=O)COc2ccc3c(c2)C(=O)CC2(CCN(C(C)=O)CC2)O3)CC1	1.2
O=C(Nc1ccc(Cl)cc1C(=O)NCC1CCCO1)c1ccco1 (configuration not stated)	i
Cc1ccc2c(c1)c1ncnc(N3CCOCC3)c1n2C	0.8
Cc1ccccc1NC(=O)c1sc2nc[nH]c(=O)c2c1C	i
CC1CCCC2(C1)NC(=S)N(c1ccccc1)N2 (configuration not stated)	i
O=C(O)c1cccc(Cn2c(Cl)c(/C=N/NC(=O)c3ccccc3)sc2=O)c1	i
O=C(Oc1cccc(Br)c1)c1cccnc1	i
Cc1nc2cc(Cl)c(Cl)cc2nc1C	i
O=c1c(F)cn(C2CCCO2)c(=O)n1Cc1c(F)cccc1Cl (configuration not stated)	1.2
Cc1cccc(-n2ccnc2SCC(=O)Nc2nccs2)c1	1.0
O=C(c1ccco1)N1CCN=C1SCc1ccccc1F	4.2
O=C(Nc1cccc2ccccc12)C1CCN(C(=O)NCc2ccccc2)CC1	i
O=C(Nc1ccccc1-c1ccccc1)c1cnccn1	i
COc1ccc(-c2noc(CCC(=O)NC3CCN(Cc4ccccc4)CC3)n2)cc1	i
O=C(CC1(O)C(=O)Nc2ccccc21)c1ccccc1 (configuration not stated)	1.1
O=C(O)CSc1nnc(-c2ccccc2O)n1Cc1ccccc1	i
C/C(=N/NS(=O)(=O)c1ccc(Cl)cc1)c1cccc(O)c1	0.2
COC(=O)c1ccc2nc(NC(=O)CN3C(=O)CCC3=O)sc2c1	1.4
O=C(CSc1nc2ccccc2s1)NC(=O)NCc1ccco1	i

Other entries:
SMILES	H5N1 antiviral
Cc1c(C(=O)CN2CCSCC2)c2ccccc2n1C	0.8
Cc1cc(/C=N\NC(=O)CC(=O)NC2CCCCC2)c(C)n1-c1ccc(Cl)c(Cl)c1	i
Cc1oc(C(C)(C)C)cc1C(=O)NCC(=O)NCC(=O)O	i
CC1CN(C(=O)c2cc3c(=O)n4ccccc4nc3s2)CC(C)O1 (configuration not stated)	4.1
Cc1onc(-c2ccccc2Cl)c1C(=O)N1CCCc2ccccc21	0.6
Cn1c(=O)c2c(nc(NCc3ccco3)n2CC(O)COc2ccccc2)n(C)c1=O (configuration not stated)	5.3
c1ccc(C2N3CCCN23)cc1 (configuration not stated)	i
Cc1cc(C=C(C#N)C#N)c(C)n1-c1ccccc1	1.1
FC(F)(F)c1nnc(-c2ccccc2)nc1Oc1ccc(Cl)cc1Cl	i
COCCn1nnnc1C(c1cc2cc(C)cc(C)c2[nH]c1=O)N1CCN(c2ccccc2F)CC1 (configuration not stated)	i
Cc1ccc(-n2c(CCC(=O)O)ccc2-c2cccs2)cc1	0.5
CCOC(=O)c1cc(-c2ccc(C)o2)n[nH]1	i

Some of the entries above, set out differently:
Molecule | H5N1 antiviral
Cc1cc(/C=N\NC(=O)CC(=O)NC2CCCCC2)c(C)n1-c1ccc(Cl)c(Cl)c1 | i
Cc1oc(C(C)(C)C)cc1C(=O)NCC(=O)NCC(=O)O | i
CC1CN(C(=O)c2cc3c(=O)n4ccccc4nc3s2)CC(C)O1 (configuration not stated) | 4.1
Cc1onc(-c2ccccc2Cl)c1C(=O)N1CCCc2ccccc21 | 0.6
Cn1c(=O)c2c(nc(NCc3ccco3)n2CC(O)COc2ccccc2)n(C)c1=O (configuration not stated) | 5.3
c1ccc(C2N3CCCN23)cc1 (configuration not stated) | i
Cc1cc(C=C(C#N)C#N)c(C)n1-c1ccccc1 | 1.1
FC(F)(F)c1nnc(-c2ccccc2)nc1Oc1ccc(Cl)cc1Cl | i

Carrying on:
SMILES	H5N1 antiviral
OC(COc1cccc(OCC(O)CN2CCCC2)c1)CN1CCCC1 (configuration not stated)	0.7
COc1cccc(OC)c1OCCOc1ccccc1OC(C)C	1.0
CCc1c(C#N)c(SCCC(=O)Nc2ccc(C)cc2)nc2c1C(=O)CC(C)(C)C2	0.3
COc1ccc(OC)c(C(=O)c2coc3ccc(O)c(CN4CCOCC4)c23)c1	2.3
O=S(=O)(NCc1ccccc1)c1ccc2c(c1)OCCO2	1.9
COc1cc(C(C(=O)NC(C)(C)C)N(Cc2ccccc2)C(=O)c2cnccn2)cc(OC)c1OC (configuration not stated)	i
C=CCNC(=O)COC(=O)c1cc(S(=O)(=O)N2CCOCC2)ccc1N1CCCCC1	i
COc1ccc(-c2csc(/C(C#N)=C(\O)CSc3nccn3C)n2)cc1OC	i
COc1nc(NC(C)(C)C)nc(Oc2ccc(=O)n(-c3ccccc3)n2)n1	i
O=S(=O)(c1ccc(Cl)cc1)n1nnc2ccccc21	i
C=Cn1ccnc1P(=S)(c1ccc(N(C)C)cc1)c1nccn1C=C	1.0
O=C1NCCCc2c1oc1ccc(O)cc21	38*
CCC(=NC1CC1)c1c(O)n(C2CCCCC2)c(=O)[nH]c1=O	1.0
O=c1c(-c2nc3ccccc3s2)cccn1Cc1ccc(Cl)c(Cl)c1	i
CCCC(=Nc1ccc(N)cc1)C1=C(O)C(C(=O)OC)C(C)(C)CC1=O (configuration not stated)	i
CC1(C)Cc2c(ccc3ccccc23)C(NNC(=O)c2cccnc2)=N1	0.5
CC(O)CNc1ncnc2nc[nH]c12 (configuration not stated)	1.3
COc1cc(OC)cc(C(=O)NC2CCN(C(=O)N3c4ccccc4Sc4ccccc43)CC2)c1	i
COc1cccc(C(=O)Nc2ccc(F)c(F)c2F)c1	0.8
O=C(CC(O)(c1ccccc1)C(F)(F)F)c1cccs1 (configuration not stated)	i
CC(=O)Nc1ccc2c(c1)nc1n2CCSC1	i
O=C(/C=C/c1cccc([N+](=O)[O-])c1)NCCN1CCOCC1	1.8
CC(C)CN1C(=O)c2ccc(C(=O)Nc3ccccn3)cc2C1=O	i
COC(=O)c1sc(N)nc1C(C)(C)C	i

Reprinted at random: 2 entries already listed
SMILES	H5N1 antiviral
COc1cc(OC)cc(C(=O)NC2CCN(C(=O)N3c4ccccc4Sc4ccccc43)CC2)c1	i
CC(O)CNc1ncnc2nc[nH]c12 (configuration not stated)	1.3

(next part)
SMILES	H5N1 antiviral
CCOC(=O)c1nnn(-c2nonc2N)c1CN(CC)CC	i
O=[N+]([O-])c1ccc(-c2cnc(SCc3ccccc3Cl)[nH]2)cc1	2.0
CN(C)CC(C)(C)CNC(=O)C1CCN(Cc2ccccc2O)CC1	1.1
Cc1c(NC(=O)/C=C/c2cn(-c3ccccc3)nc2-c2ccccc2)c(=O)n(-c2ccccc2)n1C	i
Cc1ccccc1-c1nc(CN2CCCC(C(=O)NCCCN3CCOCC3)C2)c(C)o1 (configuration not stated)	0.4
O=C(c1cccc(Cl)c1)N1CCN(C(=O)c2ccco2)CC1	i
COCCn1c(=O)c2cc3c(=O)n(CCOC)c(=O)c3cc2c1=O	0.4
Cc1ccccc1NC(=O)c1cc(=O)c2ccccc2o1	i
O=C(Nc1cccnc1)c1cnn2c(C(F)F)cc(C3CC3)nc12	2.1
COc1ccc(CC(=O)n2nc(-c3cccnc3)nc2N)cc1	1.8
CC(C)=CCC12CN3CCN(CC(C3)C1=O)C2	i
COc1ccc(/C(O)=C2/C(=O)C(=O)N(CCN3CCOCC3)C2c2ccc(C)cc2)cc1 (configuration not stated)	i
CCOc1cc(C)nc(NCCc2ccc(OC)c(OC)c2)n1	i
O=C(CSc1nc(O)cc(=O)n1-c1ccccc1)NC1CCCCC1	1.4
Cc1ccc(Cn2c(C)nc3c(c2=O)c2nc4ccccc4nc2n3Cc2ccco2)cc1	6.6
CCCn1c(N)c(C(=O)CN2CCN(S(=O)(=O)c3cccs3)CC2)c(=O)[nH]c1=O	0.9
CCOC(=O)C1CN(S(=O)(=O)c2ccc(C)cc2)C1	0.5
CCOc1ccc(C(=O)NCc2cccnc2)cc1	0.7
CC1CCCC2(C1)NC(=S)c1c(sc3c1CCCC3)N2 (configuration not stated)	1.0
COc1cc(OC)cc(-n2nnnc2SCC(=O)Nc2ccc(C(C)=O)cc2)c1	i
COc1ccc(NC(=O)Cn2nc(Cc3cccnc3)c3ccccc3c2=O)cc1OC	1.8
Nn1c(SCc2ccccc2)nnc1-c1ccco1	i
CNc1nc(C)c(C#N)cc1C(C)=O	i
CN(Cc1nc(-c2ccccn2)no1)S(=O)(=O)c1ccc(Cl)cc1	1.4
CC(=O)N(c1cccc(C)c1)C1SC(=O)N(c2ccccc2)C1=O (configuration not stated)	0.8
CC(=O)c1cc(C(=O)Nc2ccc(C(=O)O)cc2)oc1C	1.0
N#C/C(=C(/O)COC(=O)CCc1ccc(S(=O)(=O)N2CCOCC2)cc1)c1nc2ccccc2[nH]1	0.7
CCc1nc(Nc2ccccc2)c2oc3ccccc3c2n1	i
CN(Cc1ccccc1)Cc1nc2c([nH]1)c(=O)[nH]c(=O)n2C	1.4
Cc1ccc(C(=O)Cn2ncsc2=N)cc1	i
COc1cc2c(cc1OC)-c1cc(NC3CC3)nc(=O)n1CC2	i
CCOC(CNC(=O)c1cccn2c(=O)c3cc(Cl)ccc3nc12)OCC	0.2
CCc1cccc(C)c1NC(=O)C(c1ccc(O)cc1)N1CCC1=O (configuration not stated)	0.7
O=C(Nc1ccc(Cl)cc1)C1=Cc2cc(Cl)ccc2OC1	0.4
CCCCN(C(=O)NC(=O)Nc1cc(C)ccc1C)S(C)(=O)=O	i
